VACV mCherry inh = qHTS for Stage-Specific Inhibitors of Vaccinia Orthopoxvirus: mCherry Reporter Primary qHTS. Potency, µM (top dose mostly 36.5 µM), for inactives: at the highest dose activity change, negative = inhibition, usual class: inhibitors. AID 720579, 2013. Vaccinia virus mCherry reporter infection, fluorescence; about a quarter of the inactives have no number. 310,000 tested, 0.63% active; active = well fitted inhibition curve with a large enough effect; inconclusive = small, poorly fitted or top-dose-only effect; inactive = no such curve, though single readings can be large or run the other way; tested in A549 cells; also: nearly all actives have a fitted effect of over 35% in size; inactives centre near -10
VACV Venus inh = qHTS for Stage-Specific Inhibitors of Vaccinia Orthopoxvirus: Venus Reporter Primary qHTS. Vaccinia virus Venus reporter expression, fluorescence. Potency, µM (titrated, usually from 36.5 µM), for inactives: at the top dose activity change, negative = inhibition, most hits filed as inhibitors. 330,000 tested, 0.46% active; active means well fitted inhibition curve with a large enough effect; inconclusive means small, poorly fitted or top-dose-only effect; inactive means no such curve, though single readings can be large or run the other way; tested in A549 cells; also: nearly all actives have a fitted effect of over 30% in size; inactives centre near -10
* hit, by the source's call; i = inactive; ? = inconclusive; nt = no result given; & = joins results of further samples; [ ] = another dose, or the depositor's remark. % is scaled to controls: 0 for no effect and ±100 for the full control effect; potency is read from the fitted curve at half-maximal effect.

SMILES	VACV mCherry inh	VACV Venus inh
Cc1cccc(CN2CC=C(c3noc(CCC(=O)Nc4ccc(C)c(F)c4)n3)CC2)c1	-24%	-14%
CCC(=O)NC(=S)Nc1ccc2oc(-c3ccc(OC)cc3)nc2c1	i	-13%
Cn1c(SCC(=O)Nc2ccc3c(c2)OCCO3)nnc1-c1ccco1	nt	-15%
Cc1cccc(NC(=O)CSc2nc(C)c(Cc3ccccc3)c(=O)[nH]2)c1	-15%&-1%	-10%&4%
CCc1ccccc1NC(=O)c1nnn(-c2ccc(F)cc2)c1C	6%	11%
Cc1ccc(NC(=O)c2c(C)oc3ccc(O)c(CN4CCOCC4)c23)c(C)c1	-4%	1%
CCOc1ccc(Oc2c(/C=N/NC(=O)C3CC3)c(C)nn2-c2ccccc2)cc1	-17%	-14%
CCCCCC(=O)N1C[C@@H](n2cc(C3CC3)nn2)[C@H](O)C[C@@H]1c1ccc(C)cc1	-11%	-19%
O=C1NC(=S)SC1=Cc1ccccc1C(=O)O	i	-5%
FC(F)(F)c1cccc(NC(=S)NCCN2CCOCC2)c1	-17%	-5%
CCOc1cc(C(=S)N2CCOCC2)ccc1OS(=O)(=O)c1ccccc1[N+](=O)[O-]	?	?
CN1CCN(S(=O)(=O)c2cc([N+](=O)[O-])ccc2Cl)CC1	?	-25%
Cc1ccc(OCC(=O)N2CCN(C(=O)c3cccs3)CC2)cc1	-4%	-4%
CCOC(=O)Cn1c(=NC(=O)C(C)(C)C)sc2cc([N+](=O)[O-])ccc21	-11%	-12%
COc1ccc(-c2cc(C(=O)O)c3c(C)nn(-c4ccccn4)c3n2)cc1	nt	-8%
C[C@]12c3[nH]c4ccccc4c3CCN1C(=O)C(CC(=O)NCc1ccco1)C[C@@H]2C(=O)N1CCOCC1 (some centres not stated)	-13%	-8%
CCCC(=O)N1CCN(S(=O)(=O)c2cc(Cl)ccc2OC)CC1	nt	-13%
COc1ccc(-c2cc3ccccc3n2CC(O)CNCCO)cc1 (configuration not stated)	nt	-28%
O=C1C(F)=CC(COC(c2ccccc2)(c2ccccc2)c2ccccc2)OC1n1cc(F)c(=O)[nH]c1=O (configuration not stated)	10µM*	?
COc1ccc(Nc2oc(-c3ccc(COc4cccc(C)c4)o3)nc2C#N)cc1	?	?
COCc1[nH]nc2c1C(C1C=CCCC1)C(C#N)=C(N)O2 (configuration not stated)	-12%	-25%
COc1cc(Cl)c(S(=O)(=O)n2cnc(C)c2)cc1Cl	i	-1%
COc1ccc(-n2ccnc2SCC(=O)Nc2nnc(C)s2)cc1	-4%	-6%
COc1ccc(NC(=O)c2cccc(N3C(=O)C4C5C=CC(C6CC56)C4C3=O)c2)c(OC)c1 (configuration not stated)	-5%	-17%
O=c1cc(CN2CCN(C/C=C/c3ccccc3)CC2)c2cc(O)c(-c3ccccc3)cc2o1	-6%	-10%
CCCCCCCCCC1(CC(=O)OCC)SCCN1C(N)=O (configuration not stated)	-12%	?
O=C1CCCC(=O)C1CS(=O)(=O)c1ccccc1	-3%	-9%
O=C(COc1ccccc1)Nc1ncc2c(n1)CCCC2=O	nt	16%
COc1ccc(Nc2nc3c(C)cccc3cc2C#N)c(OC)c1	i	-8%
CSc1ccc(OC2CCN(Cc3ccccc3)CC2)cc1	?	-29%
CCOC(=O)/C=c1/s/c(=C/c2ccc3cc(OC)ccc3c2)c(=O)n1CC(=O)NCC1CCCO1 (configuration not stated)	i	21%
Cc1cccc(-n2cnc(C(=O)NNC(=S)Nc3ccc(Cl)cc3)c2)n1	?	-3%
COc1ccc(C(CC(=O)O)NC(=O)c2ccco2)cc1OC (configuration not stated)	nt	-5%
COc1cccc(C(=O)Nc2nnc(C(C)C)s2)c1	-15%	-7%
CC(C)c1ccc(C(=O)N2CCN(c3cnn(C)c(=O)c3Cl)CC2)cc1	-6%	2%
CC1CCCC(C)N1C(=O)COC(=O)Cc1c[nH]c2ccccc12 (configuration not stated)	0%	-21%
CN1N=C2c3ccccc3CCCC2C1c1ccc(F)cc1 (configuration not stated)	-10%	-8%
O=C(NNC(=O)C1CCCO1)c1ccccc1Cl (configuration not stated)	nt	-6%
Cc1c(C(=O)O)nnn1-c1ccccc1	nt	-21%
COC(=O)c1cnn(-c2nc(OC)cc(OC)n2)c1C	-4%	3%
CCN(C[C@H]1N[C@@](C)(C(=O)OC)[C@H]2C(=O)N(C)C(=O)[C@@H]12)C(=O)c1ccc(C(C)(C)C)cc1	-3%	6%
CC(=O)N1CCC(C(=O)N2c3ccccc3N=C(c3ccc(C(F)(F)F)cc3)C2C(=O)NC(C)C)CC1 (configuration not stated)	?	-8%
Cc1cccc(C)c1NC(=O)CN(C)C(=O)c1cccc(S(=O)(=O)N2CCN(c3ccc(F)cc3)CC2)c1	?	-28%
O=C(c1ccco1)N1CCN(C(=O)c2ccccc2NS(=O)(=O)c2ccc(F)cc2)CC1	i	-11%
Cn1c(=O)c2cc(NCc3ccccc3)nnc2n(C)c1=O	-8%	-5%
CC1CCC(C(C)C)C(OC(=O)Cn2c(-c3ccc(Cl)cc3)[n+](C)c3ccccc32)C1 (configuration not stated)	2%[7.34 µM]	11%[7.34 µM]
Cc1noc(NS(=O)(=O)c2ccc(NC(=O)CCn3c(=O)oc4ccccc43)cc2)c1C	i	-9%
Cc1ccc(NC(=O)CN(c2ccc(Cl)cc2)S(=O)(=O)c2cc([N+](=O)[O-])ccc2Cl)c(C)c1	?	?
N#Cc1sc(NCc2cccc(Cl)c2)nc1Cl	-25%	-6%
Cc1ccccc1N1CCN(C(=O)c2ccccc2NC(=O)C2CC=CCC2C(=O)O)CC1 (configuration not stated)	nt	-10%
CC(NC(=O)c1ccc(Br)cc1)c1ccccc1 (configuration not stated)	-3%	-14%
CCOc1ccc(Cc2nnc(SCC(=O)c3ccc(OC)cc3)o2)cc1	?	-26%
C=C(C)C(=O)Nc1cccnc1Oc1ccc(F)cc1F	-22%	-19%
Cc1ccc(N(C)S(=O)(=O)c2cccc(C(=O)Nc3nc4ccccc4[nH]3)c2)cc1	-23%	?
O=C(Cn1nc2ccccc2n1)N1CCOc2ccc(CN3CCc4sccc4C3)cc2C1	-4%	6%
COc1ccc(NC(=O)COC(=O)CNC(=O)C2CCCCC2)cc1OC	-6%	-10%
Cc1ccc(S(=O)(=O)N2CCCCC2)cc1NC(=O)COC(=O)c1c(F)cccc1F	7%	6%
O=C(CCc1nnc(-c2ccc3c(c2)OCO3)o1)NC(c1ccccn1)C(F)(F)F (configuration not stated)	-19%	-14%
O=C(NCCc1ccccc1)c1cccc2c(-c3ccc(F)c(F)c3)coc12	48%[activator]	5%
COc1ccc(CCC(=O)NC2CC(=O)N(c3ccc(F)cc3)C2)cc1 (configuration not stated)	-16%	-7%
Going on with the list:
SMILES	VACV mCherry inh	VACV Venus inh
Cc1cc(C)cc(-n2nnc(-c3nc(-c4ccc5c(c4)OCO5)no3)c2C)c1	-11%[7.34 µM]	-10%[7.34 µM]
CCOC(=O)c1cc(-c2ccccc2)n(CC(=O)O)c1C	nt	12%
COc1cc(OC)cc(C(=O)n2nc(C)cc2C)c1	-7%	-4%
O=C(CN1CCN(S(=O)(=O)c2ccc(F)cc2)CC1)Nc1ccc2c(c1)OCO2	nt	-18%
COc1cc2c(cc1NC(=O)CSc1ccc(Cl)cc1)oc1ccccc12	-1%	-15%
Cc1cc(F)ccc1N1CCC(N2CCN(C(C)C)C(CCO)C2)CC1 (configuration not stated)	-5%	-9%
CCCOc1ccc(C(=O)Nc2cc(-c3nc4cc(C)cc(C)c4o3)ccc2C)cc1	-12%	0%
Cc1cc(C2CCCCC2)n(O)c(=O)c1	4.5µM*	?
CCN(CC)S(=O)(=O)c1ccc(N2CCOCC2)c(C(=O)O)c1	-11%	-4%
Cc1c(Cl)cccc1NC(=O)C1CCN(c2cnccn2)CC1	i	0%
CCC(=O)NC(=S)Nc1c(C)cc(Br)cc1C	-20%	-13%
COc1ccccc1N(CC(=O)NC1CCCC1)S(=O)(=O)c1cccc(C(F)(F)F)c1	0%	-19%
CCc1ccc(NC(=O)C(=O)NCCOc2ccccc2Cl)cc1	-1%	-1%
O=C(Cn1ncc2c3ccccc3n(Cc3ccc(Cl)cc3)c2c1=O)NCCCc1ccccc1	-6%	0%
COc1ccc2c(c1)c1nnc(SC(C)C)nc1n2C	-9%	-8%
COc1ccccc1CNC(=O)c1cc2cc3ccc(Cl)cc3nc2o1	-3%	1%
O=[N+]([O-])c1cc(/C=N/O)ccc1Oc1ccccc1Cl	-23%	6%
CC1=C(C(=O)N(C(C)C)C(C)C)CC(CC(=O)NCCCN(C)C)C(=O)N1Cc1ccccc1 (configuration not stated)	5%	-1%
C[N+]1=C(/C=C/Nc2ccccc2Cl)C(C)(C)c2ccccc21	34%[activator]	104%[activator]
O=C(CCn1c2c(c3ccccc31)CCCC2)NNC(=O)c1cccc([N+](=O)[O-])c1	-7%	-21%
O=C(CSc1nccn1Cc1ccco1)Nc1ccc(F)cc1	-14%&0%	-3%&-17%
Cc1ccc(Cl)cc1NC(=O)N(C)CCO	i	-6%
COc1ccccc1N1CCN(c2ncnc3onc(C)c23)CC1	-22%	-4%
CCc1ccc(N(CC(=O)NC)S(C)(=O)=O)cc1	-14%	-7%
COC1=CC(C)C2CC3OC(=O)CC4C(C)=C(OC)C(=O)C([C@]2(C)C1=O)[C@]34C (some centres not stated)	i	-1%
COc1ccc(-c2cc3nc(C)c(CCC(=O)NC(C)CCc4ccco4)c(C)n3n2)c(OC)c1 (configuration not stated)	?	-25%
Cc1ccc(S(=O)(=O)N2CCN(C(=O)CN3C(=O)NC4(CCOc5ccccc54)C3=O)CC2)cc1 (configuration not stated)	i	-9%
CN(C)CCn1c(C(=O)Nc2ccccc2)cc2ccccc21	nt	-22%
CC1CCN(C(=O)CCCOc2ccc(Cl)cc2)CC1	-22%	-19%
Cc1cc(C)nc(/N=C(/NC(=O)Nc2cccc(Cl)c2)Nc2ccccc2)n1	-17%	-9%
CC(=O)c1cccc(OCc2cc(C(=O)N3CCSCC3)no2)c1	-9%	-8%
CCCCC(=O)Nc1cccc(-c2nc3ncccc3o2)c1C	-10%&0%	-7%&4%
Cc1ccc(Cn2c(SCCN3CCOCC3)nc3c2c(=O)n(C)c(=O)n3C)cc1	-3%	-12%
Cc1c(Br)c([N+](=O)[O-])nn1CC(=O)N1CCc2ccccc2C1	i	-1%
CC(C)(C)NC(=O)C(c1ccccc1)n1c(=O)c(-c2cc3ccccc3[nH]2)nc2ccccc21 (configuration not stated)	i	?
CC(NS(=O)(=O)/C=C/c1ccccc1)C(=O)O (configuration not stated)	-27%	6%
O=S(=O)(Nc1cccc(S(=O)(=O)N2CCCCC2)c1)c1ccc(Cl)s1	-4%	-9%
Cc1noc(C)c1C(=O)N1CCCC(C(=O)c2cccc(OC(C)C)c2)C1 (configuration not stated)	-2%	-12%
Cc1cccc(C)c1NC(=O)CN(C)CC(=O)Nc1sc2c(c1C(N)=O)CCC2	-14%	-18%
COc1ccccc1N1CCN(CC(=O)c2c(N)n(C)c(=O)n(C)c2=O)CC1	-2%	-18%
Cc1ccc(S(=O)(=O)N2CCN(C(=O)COC(=O)CNC(=O)c3ccccc3)CC2)c(C)c1	i	-7%
CCCCN(C(=O)CCCc1nc2ccccc2c(=O)[nH]1)c1c(N)n(CCCC)c(=O)[nH]c1=O	-18%	-2%
O=C(Cc1ccccc1)OCC(=O)N1CCN(S(=O)(=O)c2ccc(Cl)cc2)CC1	-12%	-11%
CCCCCNC(=O)CSC1=N/C(=C\c2ccc(Cl)c(Cl)c2)C(=O)N1CC	-9%	0%
COc1ccc(OCC#CCN2CCC(C)CC2)cc1	-12%	9%
CSc1ccccc1NC(=O)N1CCC(CO)(CC2CCCCO2)CC1 (configuration not stated)	-23%	-4%
CC(=O)c1ccccc1-c1ccc2c(c1)CC(CNC(=O)Cc1c[nH]c3ccccc13)O2 (configuration not stated)	-20%	-8%

Sorted by heavy-atom count (largest number first): some entries from above.
SMILES	VACV mCherry inh	VACV Venus inh
CCCCN(C(=O)CCCc1nc2ccccc2c(=O)[nH]1)c1c(N)n(CCCC)c(=O)[nH]c1=O	-18%	-2%
Cc1ccc(S(=O)(=O)N2CCN(C(=O)COC(=O)CNC(=O)c3ccccc3)CC2)c(C)c1	i	-7%
CC(=O)c1ccccc1-c1ccc2c(c1)CC(CNC(=O)Cc1c[nH]c3ccccc13)O2 (configuration not stated)	-20%	-8%
Cc1ccc(Cn2c(SCCN3CCOCC3)nc3c2c(=O)n(C)c(=O)n3C)cc1	-3%	-12%
Cc1cccc(C)c1NC(=O)CN(C)CC(=O)Nc1sc2c(c1C(N)=O)CCC2	-14%	-18%
COc1ccccc1N1CCN(CC(=O)c2c(N)n(C)c(=O)n(C)c2=O)CC1	-2%	-18%
CCCCCNC(=O)CSC1=N/C(=C\c2ccc(Cl)c(Cl)c2)C(=O)N1CC	-9%	0%
CSc1ccccc1NC(=O)N1CCC(CO)(CC2CCCCO2)CC1 (configuration not stated)	-23%	-4%
O=S(=O)(Nc1cccc(S(=O)(=O)N2CCCCC2)c1)c1ccc(Cl)s1	-4%	-9%
CC(=O)c1cccc(OCc2cc(C(=O)N3CCSCC3)no2)c1	-9%	-8%
Cc1c(Br)c([N+](=O)[O-])nn1CC(=O)N1CCc2ccccc2C1	i	-1%
COc1ccc(OCC#CCN2CCC(C)CC2)cc1	-12%	9%
CC(NS(=O)(=O)/C=C/c1ccccc1)C(=O)O (configuration not stated)	-27%	6%
